# GLA inh pH 4.5: inhibitors of human alpha-galactosidase A at pH 4.5. P06280. purified enzyme, 4-MU-alpha-Gal fluorescence, pH 4.5. activity change, negative = inhibition, % at 105 µM. 230,000 tested, under 10 active. AID 1467; inconclusive = small, poorly fitted or top-dose-only inhibition, or a rising curve; inactive = flat fitted curve, though single readings scatter; no compound was filed as active;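 further: 0% = full activity with enzyme and -100% = basal without enzyme; dose as in the result columns while the protocol names 77 µM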
# Target sequence (P06280 whole entry, looked up): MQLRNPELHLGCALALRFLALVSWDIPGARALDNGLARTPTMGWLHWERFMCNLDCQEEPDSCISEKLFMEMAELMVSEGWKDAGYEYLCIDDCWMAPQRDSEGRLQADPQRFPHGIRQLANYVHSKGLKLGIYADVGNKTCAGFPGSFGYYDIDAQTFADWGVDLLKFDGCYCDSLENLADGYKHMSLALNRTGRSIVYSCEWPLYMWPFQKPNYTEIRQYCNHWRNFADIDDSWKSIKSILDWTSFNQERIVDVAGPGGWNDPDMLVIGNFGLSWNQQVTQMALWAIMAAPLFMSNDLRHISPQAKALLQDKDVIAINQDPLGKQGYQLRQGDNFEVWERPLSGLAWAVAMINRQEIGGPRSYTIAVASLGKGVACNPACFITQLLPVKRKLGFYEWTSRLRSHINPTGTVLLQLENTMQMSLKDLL
# Rango complex inh: Rango-importin beta binding inhibition | Q14974 | Rango CFP/YFP FRET sensor + importin beta, 45 min | Potency, µM (series often up to 92.2 µM), without a hit: at the top dose inhibition of complex formation | actives 0.031% (n = 340,000) | AID 540263; active = rising FRET ratio curve, often small or poorly fitted; inconclusive = mostly compound fluorescence or quenching in the first reads; inactive = flat curves in all reads;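 further: potency means the concentration at half of the fitted maximal effect; 0% = DMSO wells and 100% = buffer wells lacking importin beta; nearly all actives have a fitted effect of over 15% in size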
#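 Inhibition scored from the CFP 486 nm/YFP 530 nm FRET ratio 45 min after adding 0.125 microM importin beta to 50 nM Rango biosensor preincubated 5 min with compound (room temperature, PBS with DTT, Tween-20, BSA). No-importin wells as positive control.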
# Rango dissoc inh: inhibition of RanGTP-driven Rango-importin beta dissociation | AID 540253 | actives 0.071% (n = 340,000) | Biochemical FRET Rango-importin beta, RanGTP-induced dissociation | Potency, µM (top dose mostly 46.1 µM), without a hit: at the highest dose activity change, negative = inhibition | O95149+P62826; active means falling FRET ratio curve, often poorly fitted, with flat reads before Ran was added; inconclusive means other falling curves, or compound fluorescence or quenching; inactive means flat or rising ratio curve;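 further: potency means the concentration at half of the fitted maximal effect; % of control where 0% means no effect; nearly all actives have a fitted effect of over 45% in size; -100% = wells without RanGTP and RCC1; the record marks most hits as doubtful in a second field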
#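 Recombinant Rango FRET biosensor (EYFP–snurportin 1 IBB–cerulean CFP10) at 0.1 uM premixed with 0.25 uM importin beta in PBS, 1 mM DTT, 0.02% Tween-20, 0.1% BSA. Compound added 5 min; RanGTP-RCC1 (0.6 uM Ran, 2 mM GTP, 0.2 uM RCC1) then triggers release, read at 45 min.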
# miR-21 FLuc: miR-21 reporter, rising signal; Potency, µM (doses to about 38.3 µM), without a hit: at the top dose reporter change, positive = more light; 340,000 tested, under 10 active; HeLa miR-21 FLuc reporter, luciferase, 48 h; active = well fitted rising curve with a large enough effect; inconclusive = small, poorly fitted or top-dose-only effect; inactive = no such curve, though single readings can be large or run the other way;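 further: % of control where 0% means no effect; miR-21 action dims this reporter so a rising signal means less miR-21 action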
#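 Luminescence from a firefly luciferase reporter carrying a miR-21 binding site downstream, stably expressed under a CMV promoter in HeLa cells that make miR-21 endogenously, reports miRNA modulation after 48 h compound exposure up to approximately 40uM final.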
# * marks the source's active call; other numbers are inactive results; ? = inconclusive; nt = no result given; & = joins results of further samples; [ ] = remark or other dose.
SMILES,GLA inh pH 4.5,Rango complex inh,Rango dissoc inh,miR-21 FLuc
CN1C(=O)/C(=C2\SC(N)=NC2=O)c2ccccc21,-1,-2.5%,-3%,3%
Cc1cc(=O)[nH]c(SCC(=O)Nc2ccc(C(=O)O)cc2)n1,-12,-1.8%,17%,0%
COc1cccc(/C=N/Nc2nn3cnnc3c3ccccc23)c1O,0,-4.4%,-12%,5%
CC1CCCC(C)N1C(=O)COc1ccc([N+](=O)[O-])cc1Cl (stereo not given),-3,0.0%,1%,-10%
CNC(=O)c1ccc(Nc2nnc(-c3ccc(C(N)=O)cc3)c3ccccc23)cc1,nt,3.5%,2%,2%
CCOc1ccc(C(=O)N2CCn3c2nc2ccccc23)cc1,5,-3.1%,4%,0%
CCC(C)NC(=O)Cn1c(=O)sc2ccccc21 (stereo not given),2,-6.0%,-14%,-4%
Cn1c(=O)cc(SCC(=O)NCC2CCCO2)c2ccc(Cl)cc21 (stereo not given),1,2.0%,1%,-3%
CC1(C)Cc2c(sc(NC(=O)c3ccccc3Cl)c2C(=O)O)CO1,3,4.3%,-10%,22%
O=C(COC(=O)CC12CC3CC(CC(Br)(C3)C1)C2)NC(=O)NCc1ccco1,5,-0.9%,28%,-3%
NS(=O)(=O)c1ccc(NC(=O)C2C3C=CC(C3)C2C(=O)O)cc1 (stereo not given),-5,3.6%,-5%,-1%
CCC(C(=O)NC1CCCCC1)n1c(SCc2cccc(C)c2)nc2ccncc21 (stereo not given),-5,-0.6%,-14%,-11%&-22%
COc1ccc(-c2csc(NC(=O)CC(C)C)n2)cc1,-14,0.7%,-3%,-21%
COC(=O)C1CCN(c2cc(=O)n(C3CCCCC3)c(=O)[nH]2)CC1,4,3.8%,3%,0%
COc1ccc(-c2csc(NC(=O)c3ccc(N4C(=O)CCC4=O)cc3)n2)cc1,-1,4.2%,-1%,0%
CC(C)c1ccc(N(CC(=O)NCC2CCCO2)C(=O)Cn2nnc(-c3cccs3)n2)cc1 (stereo not given),-12,0.8%,18%,0%
COc1ccc(S(=O)(=O)Nc2ccc(S(=O)(=O)N3CCOCC3)cc2)cc1,1,-1.2%,5%,-11%
O=S(=O)(c1cccs1)N1CCC2(CC1)OCCO2,nt,-2.2%,-8%,0%
Cc1ccc(SC(C)C(=O)Nc2ccccc2C(=O)N2CCOCC2)cc1 (stereo not given),-5,-0.9%,3%,-5%
COc1ccc(C(=O)NC(C(=O)NCC2CCCO2)C(C)C)cc1 (stereo not given),-2,-0.1%,-4%,-1%
Cc1c(-c2ccc(Br)cc2)[n+](=O)c2c(n1[O-])CCCC2,-7,-1.7%,-1%,-2%
CCOC(=O)Nc1ccc2c(CN3CCN(S(=O)(=O)c4ccc(C(C)C)cc4)CC3)cc(=O)oc2c1,nt,0.0%,-9%,nt
Cc1cc(-c2nnc(-c3cc4ccccc4oc3=O)o2)c(C)n1-c1ccccc1,-13,?,?,-36%
CC(C)=N/N=C(\c1cccc([N+](=O)[O-])c1)C12CN3CN(CN(C3)C1)C2,-4,-0.8%,-14%,-3%
Cc1cc([N+](=O)[O-])ccc1NC(=O)c1ccc(NC(=O)C(C)C)cc1,0,-1.2%,-7%,-4%
CC1=C(C)C(=O)N(c2ccccn2)C1=O,-6,-0.6%,7%,-1%
COc1ccc(-n2c(=O)[nH]cc(C(=O)Nc3ccc4c(c3)OCCO4)c2=O)cc1,2,-0.1%,-14%,-13%
CCc1nc2ccccc2[nH]1,5,0.8%,-10%,1%
Cc1ccc(OCC(=O)NNC(=O)CCc2ccccc2)cc1,2,1.7%,0%,-1%
Cc1cc(C)nc(NS(=O)(=O)c2ccc(NC(=O)CCN3C(=O)c4ccccc4C3=O)cc2)n1,-10,-0.1%,-2%,-6%
COc1ccc(NC(=O)C2CC(c3c(F)cccc3Cl)=NO2)cc1OC (stereo not given),nt,3.3%,4%,-2%
Cc1nnc2ccc(-c3cccc(NS(C)(=O)=O)c3)nn12,0,0.2%,5%,0%
CCN(CC)S(=O)(=O)c1ccc2oc(C(=O)NCC3COc4ccccc4O3)c(C)c2c1 (stereo not given),-17,1.9%,18%,?
C/C(=N\NC(=O)CCCC(=O)O)c1c(-c2ccccc2)c2cc(Cl)ccc2[nH]c1=O,2,-3.3%,18%,0%
O=C(NNC(=O)c1cc(-c2ccncc2)nc2ccccc12)Nc1ccc(F)cc1,nt,1.3%,-11%,11%
O=C(NN1CCCCC1)c1ccccc1,2,-0.3%,-3%,-1%
CCN1C(=O)N[C@@H](c2ccccc2)[C@H](C(=O)OC)[C@H]1C,3,0.7%,2%,nt
c1ccc2c(c1)nc(N1CCOCC1)c1nncn12,4,-2.8%,14%,-15%
CCOC(=O)c1c(NC(=O)CSc2nnnn2-c2ccc3c(c2)OCCO3)sc(C)c1C,-12,-1.3%,?,-9%
O=C(c1cccc2ccccc12)C1CCCN(C(=O)C2CCOCC2)C1 (stereo not given),-13,7.5%,-10%,-1%

# 2 of the compounds above, with bars between the fields:
SMILES | GLA inh pH 4.5 | Rango complex inh | Rango dissoc inh | miR-21 FLuc
CC(C)=N/N=C(\c1cccc([N+](=O)[O-])c1)C12CN3CN(CN(C3)C1)C2 | -4 | -0.8% | -14% | -3%
Cc1cc([N+](=O)[O-])ccc1NC(=O)c1ccc(NC(=O)C(C)C)cc1 | 0 | -1.2% | -7% | -4%

# In the list so far, these contain an NH in an aromatic ring:
SMILES,GLA inh pH 4.5,Rango complex inh,Rango dissoc inh,miR-21 FLuc
Cc1cc(=O)[nH]c(SCC(=O)Nc2ccc(C(=O)O)cc2)n1,-12,-1.8%,17%,0%
COC(=O)C1CCN(c2cc(=O)n(C3CCCCC3)c(=O)[nH]2)CC1,4,3.8%,3%,0%
COc1ccc(-n2c(=O)[nH]cc(C(=O)Nc3ccc4c(c3)OCCO4)c2=O)cc1,2,-0.1%,-14%,-13%
CCc1nc2ccccc2[nH]1,5,0.8%,-10%,1%
C/C(=N\NC(=O)CCCC(=O)O)c1c(-c2ccccc2)c2cc(Cl)ccc2[nH]c1=O,2,-3.3%,18%,0%

# Further entries:
SMILES,GLA inh pH 4.5,Rango complex inh,Rango dissoc inh,miR-21 FLuc
CSc1nc2ccc(NC(=O)c3c(F)cccc3F)cc2s1,-13,-3.0%,19%,-60%
O=C(c1noc2c1CCc1ccccc1-2)N1CCc2ccccc2C1,-12,nt,nt,-33%
CCOc1ccc(NC(=O)c2cc(S(=O)(=O)N3CCOCC3)cn2C)cc1,nt,1.3%,-7%,-5%
COc1ccc(S(=O)(=O)NC2CCCC2)cc1NC(C)=O,nt,2.4%,-14%,0%
CC(NC(=O)c1ccc(Br)o1)c1ccccc1 (stereo not given),10,-0.4%,6%,-1%
Cc1ccc(N=C(NOC(=O)c2ccccc2)c2nonc2N)c(C)c1,-14,-0.3%,12%,-14%
COc1ccc(Cn2c(=O)[nH]c3cc(C(=O)NCCCOC(C)C)ccc3c2=O)cc1,5,-0.7%,0%,-4%
Cc1occc1C(=O)Nc1cccc(Cl)c1Cl,nt,5.2%,12%,-33%
COC(=O)c1cnn(-c2ccccc2)c1N,-2,?,-6%,-4%
COc1ccccc1-c1c(C#N)c(N)nc2c1CCc1ccccc1-2,-1,-5.1%,-15%,2%
COc1ccc(COc2ccccc2C(=O)NCc2ccccc2)cc1F,-11,-2.4%,-8%,22%
O=C(Nc1ccc(Cc2ccncc2)cc1)C1CCC(N2C(=O)C3C4C=CC(C4)C3C2=O)CC1 (stereo not given),8,1.7%,-2%,27%
Cc1cc2c(cc1C)NC(c1ccccn1)C1=C(CC(C)(C)CC1=O)N2 (stereo not given),-11,-2.4%,1%,-16%
Cc1ccc(NC(=O)COC(=O)c2ccc(NC(=O)CC#N)cc2)cc1S(=O)(=O)N1CCOCC1,nt,-2.5%,-8%,nt
COc1ccc(NS(=O)(=O)c2cccc(C(=O)N/N=C(\C)c3cccnc3)c2)cc1,nt,-1.7%,11%,nt
CC(Oc1ccc2c3c(c(=O)oc2c1)CCC3)C(=O)NCCN1CCOCC1 (stereo not given),nt,2.3%,-10%,-4%
O=C(c1sc2ccccc2c1Cl)N1CCN(c2ccccn2)CC1,nt,?,-21%,-9%
COc1cc2c(cc1OC)C(c1ccccc1)NC(C)(C)C2 (stereo not given),nt,-0.1%,4%,-4%
Cc1ccn2c(Nc3ccccc3C)c(-c3ccncc3)nc2c1,-1,2.3%,1%,12%&-2%
Cc1ccsc1/C=N/N=C1\C(=O)Nc2ccccc21,-6,0.0%,15%,-58%
CN(C)c1ccc(NS(=O)(=O)c2cccc(Cl)c2)cc1,6,2.0%,14%,-2%
O=C(COC(=O)c1cccc(C(=O)OCC(=O)c2ccc(Br)cc2)n1)c1ccc(Br)cc1,2,-5.5%,-8%,3%
O=[N+]([O-])c1ccc(NN=Cc2ccc3c(c2)OCO3)nc1,nt,?,?,nt
NC(=O)c1cc(-c2csc(-c3cccnc3)n2)ccc1O,nt,-2.7%,6%,-33%
Cc1ccc(C)c(N2CC(C(=O)Nc3nccs3)CC2=O)c1 (stereo not given),nt,0.4%,1%,16%
CCOC(=O)c1c(C)[nH]c(C)c1C(=O)COC(=O)c1cccnc1Cl,nt,-3.7%,-9%,nt
O=C(CN1C(=O)NC2(CCCCC2)C1=O)Nc1ccc2c(c1)CCC2,-13[21.1 µM],-1.2%,-1%,-3%
CCN1C(=S)N[C@@H](c2ccccc2)C(C(=O)OC)=C1C,nt,-2.0%,-11%,11%&4%
Cc1ccc(S(=O)(=O)c2ccc(Cl)cc2)cc1S(=O)(=O)NC(C(=O)O)C(C)C (stereo not given),7,4.0%,8%,-2%
Cc1cc(-c2ccccc2)nc(N(C)NC(=O)c2ccc(Cl)cc2)c1S(C)(=O)=O,3,4.2%,0%,-5%
CC(=O)N1CCN(C(=S)NC(=O)C23CC4CC(CC(C4)C2)C3)CC1,3,-1.1%,35%,-11%
O=C(Cn1c(=O)n2ncnc2c2c3c(sc21)CCCC3)c1ccccc1,9,-0.9%,7%,-12%
COc1ccc(-n2cc([N+](=O)[O-])c(=O)c3ccc(Cl)cc32)cc1,nt,?,-20%,nt
CCOc1ccccc1NC(=O)c1sc2nc(C)nc(N3CCOCC3)c2c1C,nt,2.6%,-5%,3%
CCC(CC)C(=O)Nc1cccc(C(=O)Nc2nccs2)c1,-7,-1.2%,2%,0%
CN(C)CCCN(C(=O)c1sc2ccccc2c1Cl)c1nc2c(F)cccc2s1,-6,-0.6%,25%,-1%
O=C(O)CCCCCCCCCCCNC(=O)NC12CC3CC(CC(C3)C1)C2,nt,0.6%,25%,nt
COc1ccc(OCC(=O)N2CCN(c3cccc(Cl)c3)CC2)cc1,0,-3.4%,5%,-2%
Cc1cc(C(F)(F)F)nn1CC(=O)N(C)C1CCCCC1,nt,2.9%,4%,nt
CCCCC(CC)CNC(=O)c1cc2ccccc2c(=O)o1 (stereo not given),0,0.9%,0%,-4%
COC(=O)c1cc2cc(OC)ccc2n1C,nt,-1.1%,-7%,nt
CCN(CC(=O)Nc1c(C(=O)OC)[nH]c2ccccc12)c1ccc2c(c1)OCO2,-1,2.7%,-12%,5%
COC(=O)/C=C/C(=O)N1CCN(c2ccccc2)CC1,0,-1.1%,-13%,9%
COc1ccc(-c2cc(C(=O)O)c(C)o2)cc1OC,4,-0.9%,2%,19%
CCN(CC)S(=O)(=O)c1ccc(N2CCN(c3ccccc3OC)CC2)c(N)c1,nt,0.0%,4%,28%
CCC1CCCCN1CCCNC(=O)c1ccc(/C=C2/Sc3ccccc3NC2=O)cc1 (stereo not given),nt,-3.7%,?,-22%
COC(=O)CCn1c(C)cc(C(=O)COc2ccccc2C(N)=O)c1C,2,-0.9%,3%,16%
CCCCc1nnc(NC(=O)C2CC(=O)N(Cc3ccccc3)C2)s1 (stereo not given),nt,-4.3%,-11%,-3%
Cc1noc(NC(=O)c2c(-c3c(Cl)cccc3Cl)noc2C)c1[N+](=O)[O-],-4,2.6%,2%,-1%
CCC(=O)NNc1nc2c(Cl)cccc2s1,-2,-3.9%,6%,-1%
CN1C(=O)c2ccccc2C(C(=O)NCC2CCCO2)C1c1c[nH]c2ccccc12 (stereo not given),-19,-3.5%,-3%,0%

# Screening results as filed in PubChem BioAssay.

# These rows are one share of the data; the hit share may differ from the screen's.
